2A StopGo: lowers the luciferase signal of an FMDV 2A StopGo reporter | human cells with a luciferase reporter of 2A StopGo recoding; control for the full effect not named in the record | Potency, µM (doses to about 57.9 µM), for inactives: at the highest dose signal change, negative = less light | 410,000 compounds, 1.2% hits | AID 1159524; active = well fitted falling curve with a large enough effect; inconclusive = small, poorly fitted or top-dose-only effect; inactive = no such curve, though single readings can be large or run the other way; tested in HEK293T cells; further: nearly all actives have a fitted effect of over 45% in size; luciferase light after 4 h
RE007 growth inh: less growth of the S. pombe RE007 Vpr strain. S. pombe RE007 Vpr strain, BacTiter-Glo ATP luminescence, 24 h; control for the full effect not named in the record. Potency, µM (doses to about 92.2 µM), for inactives: top-dose activity change, negative = less growth. 360,000 compounds, 0.21% hits. AID 651644; active = well fitted falling curve with a large enough effect; inconclusive = small, poorly fitted or top-dose-only effect; inactive = no such curve, though single readings can be large or run the other way;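 further: nearly all actives have a fitted effect of over 50% in size; the assay follows cell death caused by Vpr and the record does not say whether a fall means rescue or toxicity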
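Fission yeast RE007 carrying one integrated HIV-1 vpr copy, seeded at OD 0.01 in PMG+AL medium with 23 nL pinned compound. Grown 24 h at 30 degrees; viability read by BacTiter-Glo luminescence after 5 min.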
* = called active by the depositor; ? = inconclusive; [ ] = another dose, or the depositor's remark. On the % scale 0 is the no-effect control and ±100 the full control effect; potency means the concentration at half of the fitted maximal effect. The list is partial; count on the stated rates, not on these rows.

SMILES	2A StopGo	RE007 growth inh
COc1ccc(CNC(=O)c2ccc(-n3ccnc3)c3ccoc23)cc1OC	-16%	-6%[18.4 µM]
OCc1ccc(-c2cccc3nccn23)cc1	-10%	0%
CC(C)C[C@H]1CN([C@@H](Cc2ccc(O)cc2)CN2CCC[C@@H]2CN2C(=S)NC[C@@H]2Cc2ccccc2)C(=S)N1CC1CCCCCC1	-11%	13%
O=C(COC(=O)COc1ccc(Cl)cc1)Nc1cccnc1Cl	-19%	-2%
CC(C)Nc1ncnc2c1ncn2[C@H]1CN(CCN2CCOCC2)C[C@@H](CO)O1	-14%	3%
CN(CCOc1ccc(Cl)cc1)C(=O)c1cccc(S(=O)(=O)N2CCN(Cc3ccccc3)CC2)c1	10µM*	-24%
O=C(Cn1cc(COc2ccc(-n3cccc3)cc2)nn1)NS(=O)(=O)c1ccccc1C(F)(F)F	-24%	1%
CC(C)CC1C(=O)N(Cc2cn(CCC3OCCCO3)nn2)CCS(=O)(=O)N1Cc1ccc(-c2ccc(F)cc2)cc1 (stereo not drawn)	0%	11%
CCCCN1C(=O)C(C(=O)OCc2ccccc2)CC2=C1CCCC2=O (stereo not drawn)	-13%	9%
COc1ccc(NC(=O)C2(C)Cc3c(-c4ccc(N(C)C)cc4)ccnc3O2)cc1 (stereo not drawn)	-19%	-19%
C#CCOCCOCCOCCNc1nc(N2CCN(C(=O)Cn3cc(CCO)nn3)CC2)nc(N2CCN(C(=O)[C@H](CCCCN)n3cc(CCCC)nn3)CC2)n1	-4%	7%
COCCNC(=O)C1CCCN(C(=O)Cc2cccc3ccccc23)CC1 (stereo not drawn)	-22%	8%

Profiles, looked up by structure. Screens in order: 2A StopGo | RE007 growth inh
Shown for `CN(CCOc1ccc(Cl)cc1)C(=O)c1cccc(S(=O)(=O)N2CCN(Cc3ccccc3)CC2)c1` = 10µM* | -24%
Shown for `C#CCOCCOCCOCCNc1nc(N2CCN(C(=O)Cn3cc(CCO)nn3)CC2)nc(N2CCN(C(=O)[C@H](CCCCN)n3cc(CCCC)nn3)CC2)n1` = -4% | 7%
Shown for `O=C(Cn1cc(COc2ccc(-n3cccc3)cc2)nn1)NS(=O)(=O)c1ccccc1C(F)(F)F` = -24% | 1%
Shown for `COc1ccc(NC(=O)C2(C)Cc3c(-c4ccc(N(C)C)cc4)ccnc3O2)cc1` (stereo not drawn) = -19% | -19%
Shown for `CC(C)C[C@H]1CN([C@@H](Cc2ccc(O)cc2)CN2CCC[C@@H]2CN2C(=S)NC[C@@H]2Cc2ccccc2)C(=S)N1CC1CCCCCC1` = -11% | 13%

Continued:
SMILES	2A StopGo	RE007 growth inh
COc1ccc(CC(N)c2csc(NC(=O)c3ccccc3)n2)cc1 (stereo not drawn)	-17%	6%[18.4 µM]
CC1(C(=O)NS(=O)(=O)c2cccc(F)c2)CCN1C(=O)c1cccc(F)c1 (stereo not drawn)	0%	-4%
O=C(/C=C/[C@H]1O[C@@H](n2ccc(=O)[nH]c2=O)[C@H](O)[C@@H]1O)N1CCN(CCc2ccccc2)CC1	-8%	-6%
CC(C)(C)NC(=O)C(c1ccccc1F)n1c(=O)c(-c2ccccc2)nc2ccccc21 (stereo not drawn)	-1%	0%
Cn1c(SCC(=O)N2CCCC2)nc2c(c1=O)SCC2	-14%	-3%
CNc1cncc(-c2ccc(C)cc2)n1	47%[activator]	-20%
COc1ccc(C(C)=O)cc1Cn1c(C)c(C(=O)NCc2ccc(C(F)(F)F)cc2)sc1=O	-15%	1%[18.4 µM]
CCOC(=O)C1(COCc2ccccc2)CCCCC1=O (stereo not drawn)	-9%	-8%
OC[C@@H]1CN(C2CCCC2)C[C@H](n2cnc3c(N4CCCC4)ncnc32)O1	0%	-8%
CC[C@]12C(=O)N(C)C[C@H]([C@@H]3C(=O)N(C)C(=O)[C@@H]31)N2C(=O)c1ccc(C)cc1	-6%	19%
CC(=O)Nc1ccc(Nc2nc(-c3c(C)nc4ccccn34)cs2)cc1	?	-19%
O=C(NCc1ccccc1)c1cc(C2CCCN(S(=O)(=O)c3cccc4cccnc34)C2)on1 (stereo not drawn)	6%	8%[18.4 µM]

(cont.)
SMILES	2A StopGo	RE007 growth inh
Cc1ccc(Cn2c(C)c(C(=O)NCc3cccc(C(F)(F)F)c3)sc2=O)cc1	-13%	0%[18.4 µM]
CCN(CC)C(=O)C1=C(C)N(Cc2ccccc2)C(=O)C(CC(=O)NCCCN(C)C)C1 (stereo not drawn)	-1%	0%
CC1(Cc2ccc(F)cc2)C(=O)Nc2c(Cl)ccc(Cl)c21 (stereo not drawn)	-4%	1%
O=C(Nc1ccc(F)cc1)Nc1nnc([C@@H]2C[C@H](O)[C@@H](CO)O2)s1	10%	0%[18.4 µM]
CCN1C[C@@H]2[C@@H]3C(=O)N(Cc4ccccc4)C(=O)[C@@H]3[C@](Cc3ccccc3)(C1=O)N2C(=O)c1ccc(C)cc1	53%[activator]	2%
C#CCn1c2ccccc2c(=O)n1C(C)C	0%	66%
Cc1cnc(CNC(=O)c2csc([C@H]3C[C@H](O)[C@@H](CO)O3)n2)cn1	-8%	25%
C[C@@H]1O[C@H](C2CCCCC2)Cc2[nH][nH]c(=O)c21	-12%	6%
CCOC(=O)c1cccc(NC(=O)c2c(N)n(C)c(=O)[nH]c2=O)c1	1%	20%
Cc1cn(CC(=O)NCC2CCCO2)c(=O)[nH]c1=O (stereo not drawn)	0%	1%
CCCCN1CC[C@H]2C=CC[C@@H](C(=O)N3CCN(c4ccccc4)CC3)[C@H]2C1=O	-5%	-7%
CCCCc1c(-c2ccccc2OC)ncn1Cc1ccc(Cl)cc1	?	?

Next part.
SMILES	2A StopGo	RE007 growth inh
COC(=O)c1ccc(CNC(=O)C(Cc2ccccc2)NC(=O)c2ccccc2)cc1 (stereo not drawn)	-5%	-2%
Cc1ccccc1NC(=O)C1C(=O)Nc2ccccc2C(=O)N1Cc1ccccc1 (stereo not drawn)	-1%	0%
CCOc1ccccc1C(=O)Nc1nnc(SCC(=O)N2CCCC2)s1	-10%	-5%
CCOC(=O)[C@]12CCC=C1N(Cc1ccco1)C(=O)[C@H](CC(=O)NCc1ccccc1)C2	3%	0%
CCN(CC(=O)Nc1cc(Cl)ccc1C)C(=O)C1CCN(c2ncnc3sc(C)c(C)c23)CC1	18µM*	-1%
Cc1cccc(CCNC(=O)C2CC(O)CN2C(=O)Nc2ccccc2)c1 (stereo not drawn)	-10%	-6%
CCC1=NN(C(=O)c2ccccc2[N+](=O)[O-])C(O)(c2ccccc2)C1 (stereo not drawn)	-12%	-18%
CCCCC(=O)N(C)c1c(CC)nc2c(OCCOc3ccccc3)cccn12	-3%	-27%
O=C1CCCCC(=O)[C@H](OC(=O)c2ccccc2)C[C@H](c2ccccc2)O1	-23%	30%
CCN1/C(=C/C=C/C2=[N+](CC)c3ccccc3C2(C)C)C(C)(C)c2ccccc21	3.5µM*	?
CC(C)NC(=O)c1onc(CSc2ccc(F)c(F)c2)c1C(=O)NC(C)C	-2%	-20%
CCOc1ccccc1C=C1CCc2ccccc2C1=O	28%	-11%

(list continues)
SMILES	2A StopGo	RE007 growth inh
COC(=O)C1=C(C)N(CCCC(=O)O)C(=O)NC1c1ccc2c(c1)OCO2 (stereo not drawn)	-11%	-4%
CC1(C(=O)NS(=O)(=O)c2ccccc2Cl)CCN1C(=O)Cc1ccccc1Cl (stereo not drawn)	4%	21%
CCN(CC)C(=O)C1=C(C)N(Cc2ccc(OC)cc2)C(=O)C(CC(=O)NCc2cccs2)C1 (stereo not drawn)	3%	11%
C[C@@H]1CC2=C(C(=O)OC(C)(C)O2)[C@@H](C2CC2)O1	-24%	4%
O=c1c2ccccc2nnn1CCc1ccccc1	0%	0%
C[C@@H]1CN([C@H](C)CO)C(=O)c2cc(Br)cnc2O[C@@H]1CN(C)Cc1cncnc1	-13%	-1%
CCCNC(=O)C1(C)CCCN(C(=O)Cc2ccc3ccccc3c2)C1 (stereo not drawn)	6%	12%
COc1ccc(-n2nc3ccc(N)cc3n2)cc1	-23%	-29%
CCc1nc2c(OCCC3CCCCC3)cccn2c1N(C)C(=O)C1CC1	-10%	-22%
CC(C)C(N)c1csc(Nc2ccc(C(=O)N(C)Cc3ccccc3)cn2)n1 (stereo not drawn)	62%[activator]	1%
Cc1nc(N/N=C/c2cccnc2)cc(N2CCOCC2)n1	0%	9%
CC[C@H](C)[C@H]1CNC(=S)N1CC1CCN(CCC23CC4CC(CC(C4)C2)C3)CC1	?	-22%

Other structures.
SMILES	2A StopGo	RE007 growth inh
CCNC(=O)C1(C)CCCN(C(=O)c2ccccc2Br)C1 (stereo not drawn)	-14%	-2%
CC(C)(C)OC(=O)N1CCC(C(=O)Nc2ccc(C(=O)NCCc3ccccc3)cc2)CC1	-14%	-7%
CC(=O)c1cccc(NC(=O)C2Cc3c(-c4ccco4)ccnc3O2)c1 (stereo not drawn)	-10%	3%[18.4 µM]
O=C(c1ccc(=O)[nH]c1)N(c1ccccc1)C(CCc1ccccc1)c1nc2ccccc2[nH]1 (stereo not drawn)	-15%	-2%
COc1cc2c(cc1OC)C(CNC(=O)C=Cc1ccccc1)C2 (stereo not drawn)	-17%	-1%
COc1cc(/C=C/CNC[C@H]2O[C@@H](n3ccc(=O)[nH]c3=O)[C@H](O)[C@@H]2O)ccc1O	-6%	11%
CCOc1ccc(CCN2C(=O)C(=O)N([C@@H](Cc3ccccc3)CN3CCC[C@@H]3CN3C(=O)C(=O)NC[C@@H]3Cc3ccc(O)cc3)C[C@@H]2Cc2ccccc2)cc1	-8%	1%
OCc1cccc(-c2csc(C(O)c3ccco3)n2)c1 (stereo not drawn)	29%	18%
CCOC1=C2[C@@H](CN(S(=O)(=O)c3ccccc3C)[C@H]2c2ccc(Cl)cc2)[C@H]2C(=O)N(C3CCCCC3)C(=O)[C@H]2C1	-8%	0%
Cc1ccc(CN2C(=O)C(CC(C)C)Nc3ncnc(N4CCCCC4)c32)cc1 (stereo not drawn)	-22%	6%
CN(C(=O)c1cccc(NC(=O)Cc2cccc(NC(=O)C3CCN(C(=O)C4CC4)CC3)c2)c1)C1CCC1	-18%	-5%
Cc1cc(C(F)(F)F)c2c(C)nn(-c3ccccc3)c2n1	-20%	1%

Additional entries follow:
SMILES	2A StopGo	RE007 growth inh
CCNC(=O)C1(C)CCN(C(=O)c2cccc(OC(F)(F)F)c2)C1 (stereo not drawn)	-5%	-22%
CCOC(=O)C1CCN(C(=O)CCn2c(=O)oc3ccccc32)CC1	-23%	-2%
Cc1cn([C@H]2C[C@H](O)[C@@H](/C=C/C(=O)NCc3cccc4ccccc34)O2)c(=O)[nH]c1=O	-15%	0%
CCNC(=O)C1(C)CCN(C(=O)c2ccc3ccccc3c2)C1 (stereo not drawn)	21%	8%
Cc1ccc2c(c1)C1(SC(C)C(=O)N1c1ccc(Cl)cc1)C(=O)N2 (stereo not drawn)	-24%	-9%[18.4 µM]
COc1cc(NC(=O)c2ccc(-c3cn[nH]c3)c3ccoc23)cc(OC)c1OC	-22%	-8%
COc1cccc(S(=O)(=O)N(C)C[C@H]2OCc3cnnn3CCCC(=O)N([C@@H](C)CO)C[C@H]2C)c1	-24%	-6%
Cc1noc(C)c1C(=O)N1CCCC(C)(C(=O)NS(=O)(=O)C2CC2)C1 (stereo not drawn)	-13%	5%
CC(C)CC(NC(=O)OCc1ccccc1)C(=O)NC(Cc1c[nH]c2ccccc12)C(=O)O (stereo not drawn)	-24%	7%
C=CCOC(=O)C1=C[C@@H](c2ccc3c(c2)OCO3)C[C@@H](OCCCCO)O1	34%[activator]	18%
CC(C)n1nnnc1C1c2ccccc2C(=O)N1CCCN1CCOCC1 (stereo not drawn)	-24%	-19%
c1coc(-c2cc3nc(NCc4ccc5c(c4)OCO5)ccn3n2)c1	14%	-8%

New compounds follow:
SMILES	2A StopGo	RE007 growth inh
Cc1cccc(C)c1NC(=O)CN1CCN(C(=O)CNC(=O)c2ccc(-c3ccccc3)cc2)CC1	-24%	-12%
CCCCC(=O)N(C)c1c(C)nc2ccc(C(=O)NCCOc3ccc(OC)cc3)cn12	-6%	9%[18.4 µM]
CCOC(=O)CC1c2nc3ccccc3cc2CN1C(=O)OCC (stereo not drawn)	?	-11%
O=C(/C=C/c1ccccc1[N+](=O)[O-])Nc1cc(S(=O)(=O)N2CCOCC2)ccc1N1CCOCC1	-6%	10%
O=C(Cn1c(NCCCl)nc2ccccc21)c1ccc(Br)cc1	15%	-14%
COc1ccc(C)cc1Nc1ncnc2c1nnn2Cc1ccccc1Cl	-5%	2%
COc1ccc(Cl)cc1-c1noc([C@@H]2O[C@H](CO)[C@@H](O)[C@H]2O)n1	-7%	7%[18.4 µM]
Cc1cccc(C)c1-n1nnnc1C1(C)CCC(=O)N1CC(F)(F)F (stereo not drawn)	-13%	0%
Cc1noc(C)c1S(=O)(=O)NC(=O)C1(C)CCN1C(=O)C1(c2ccc(Cl)cc2)CCC1 (stereo not drawn)	4%	14%
CC(C)Nc1nc(NCCOc2ccccc2)c2sccc2n1	?	-15%[18.4 µM]
Cc1ccc(N2CCC3CC2c2cc(-c4ccc(C(F)(F)F)cc4)ccc23)cc1 (stereo not drawn)	?	-5%
O=C(CSc1nnc(-c2ccncc2)n1C1CC1)c1cccs1	0%	0%
CCCCOCCCNC(=O)C[C@@H]1C[C@@]2(C(=O)OCC)CCC=C2N(Cc2ccco2)C1=O	-23%	-14%
